Compound activity: PubChem, Sanford-Burnham Center for Chemical Genomics
SENP8 inh – SENP8 (human) protease inhibition. Q96LD8. recombinant SENP8, Nedd8 substrate fluorescence. inhibition, % at 20 µM. 360,000 compounds, 0.64% hits. AID 602440; in the data active means inhibition mostly above about 40%, no sharp cut-off; inactive means mostly below about 27%
SENP6 block – blocks the human protease SENP6 | Q9GZR1 | Recombinant SENP6 catalytic domain, aminoluciferin luminescence | inhibition, % at 10 µM | 330,000 compounds, 1.8% hits | AID 2599;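 active means inhibition above about 50% at the single tested dose, limit read from the data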;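 further: plate controls were DMSO wells with enzyme for no effect and DMSO wells lacking enzyme for full effect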
hIAP activ – human IAP activation; P09923; purified human IAP, CDP-Star luminescence, 30 min; stronger effect = higher value; 1 = vehicle-only enzyme, 0 = enzyme-free background; activation factor at 10 µM; 330,000 compounds, 0.16% hits;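 active means activation factor of the enzyme at least 2-fold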; further: the source names both 10 and 20 µM as test concentration; values of inactives mirror those of a sister screen read the other way
Target sequence (P09923 whole entry, looked up): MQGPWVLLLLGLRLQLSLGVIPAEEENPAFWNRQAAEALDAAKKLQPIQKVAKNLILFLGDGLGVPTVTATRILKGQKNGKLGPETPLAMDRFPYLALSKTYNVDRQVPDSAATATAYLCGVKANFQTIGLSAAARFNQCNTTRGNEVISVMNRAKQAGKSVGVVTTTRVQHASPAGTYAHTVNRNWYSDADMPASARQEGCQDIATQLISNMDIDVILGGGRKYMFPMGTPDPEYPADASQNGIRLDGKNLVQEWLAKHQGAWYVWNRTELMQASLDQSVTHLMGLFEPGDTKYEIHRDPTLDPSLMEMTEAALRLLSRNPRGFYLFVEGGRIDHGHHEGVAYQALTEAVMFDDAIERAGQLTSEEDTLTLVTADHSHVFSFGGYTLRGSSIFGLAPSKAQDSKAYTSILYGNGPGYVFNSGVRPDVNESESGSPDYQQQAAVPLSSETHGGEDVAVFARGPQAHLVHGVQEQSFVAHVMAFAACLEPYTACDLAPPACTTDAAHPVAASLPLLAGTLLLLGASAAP
PfG6PD inh – PfG6PD (Plasmodium falciparum) enzyme inhibition | PfGluPho enzyme, NADPH resazurin-diaphorase fluorescence | inhibition, % at 20 µM | 350,000 compounds, 0.78% hits;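 active means inhibition reaching at least a set limit at 20 µM in the primary screen, cut at about 59% in these data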;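 further: 0% = DMSO wells with substrate and 100% = DMSO wells lacking glucose-6-phosphate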
NR3A LBD binder – modulators (binders) of human NR3A ligand-binding domain; NR3A LBD differential scanning fluorimetry, Tm shift; 0% = protein alone, 100% = glycine-bound protein; Tm shift relative to glycine control, % at 25 µM; 340,000 compounds, 2.5% hits;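 active means melting temperature shift of at least 10% of the positive control shift, at one fixed dose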
SENP1 FRET inh – SENP1 (human) catalytic domain inhibition; 360,000 compounds, 0.21% hits; Q9P0U3; inhibition, % at 10 µM; recombinant SENP1 catalytic domain, CyPet-SUMO1-YPet FRET cleavage;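 active means inhibition at least 30% at 10 µM, raw YFP signal under a set limit, fluorescence ratio 0.5 to 1.5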;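 further: 0% = enzyme with DMSO and 100% = no enzyme wells; some results filed as inactive read as strong as hits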
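System: Recombinant human SENP1 catalytic domain, His6-tagged | Incubation: Enzyme reaction for 50 min at room temperature, dark | Medium: Tris pH 8 with BME, BSA, NP40 and catalase | Also added: 25 nM SUMO1 FRET substrate | Compound: 10 µM single point, 0.5% DMSO | Measured by: FRET fluorescence in CFP and YFP emission channels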
ATG4B inh – ATG4B (human) cysteine protease inhibition. 340,000 compounds, 0.51% hits. Q9Y4P1. inhibition, % at 8.33 µM. ATG4B cleavage of LC3-PLA2, NBD-HPC fluorescence, 1 h; in the data active means inhibition above about 40%
An asterisk follows results filed as active. The list is partial (hit frequency here may not be typical).

Under each structure: SENP8 inh | SENP6 block | hIAP activ | PfG6PD inh | NR3A LBD binder | SENP1 FRET inh | ATG4B inh
1	O=C(c1ccc(Br)cc1)c1cc(-c2ccccn2)c(N2CCOCC2)s1
  -136 | -9 | 0.96 | 21 | 1 | -19 | -10
2	Cc1ccc(-c2onc3ccc(C(=O)O)cc23)cc1
  12 | -5 | 0.79 | 3 | -1 | 0 | -3
3	Cc1ccc(S(=O)(=O)N(c2nc(NC(C)C)nc(NC(C)C)n2)n2cnnc2)cc1
  12 | -21 | 1.1 | 14 | -2 | 1 | -5
4	CC(C(=O)N1CCc2ccccc2C1)N1C(=O)c2ccccc2C1=O (stereo unspecified)
  19 | -12 | 0.94 | -7 | -1 | 1 | 2
5	O=C(N/C(=C/c1ccc(Cl)cc1)C(=O)N1CCOCC1)c1ccccc1
  -12 | 0 | 1.1 | -7 | 0 | 1 | 5
6	COc1ccccc1C(=O)Nc1ccc2ccccc2c1
  4 | 50 | 0.86 | 41 | -4 | -1 | -4
7	Cc1nnnn1-c1cccc(C(=O)O)c1
  9 | -32 | 0.81 | -13 | -6 | 0 | 2
8	O=C(C1CCN(S(=O)(=O)c2ccccc2F)CC1)N1CCN(Cc2ccc3c(c2)OCO3)CC1
  10 | -14 | 0.87 | -14 | 0 | 2 | -2
9	COc1cc(NS(C)(=O)=O)c(OC)cc1NC(=O)c1cccc(F)c1
  2 | -17 | 0.93 | -7 | 0 | -35 | 3
10	Cc1cc(C)nc(N/N=C/C2=C(N3CCOCC3)C(=C/c3ccccc3)/CC2)n1
  -161 | -4 | 0.88 | 14 | 0 | -28 | -14
11	COc1cccc(CN(C)CC(=O)Nc2cccc(C(F)(F)F)c2)c1OC
  5 | -6 | 1.1 | 22 | 1 | 0 | -11
12	CCC(C)(C)NC(=O)CC(c1ccc(OC)cc1)n1cccc1 (stereo unspecified)
  17 | -5 | 0.87 | -12 | 0 | 1 | -16
13	CSc1ccc(S(=O)(=O)N2CCC(C(=O)Nc3ccc(NC(C)=O)cc3)CC2)cc1
  9 | -11 | 0.99 | 10 | 2 | 0 | -17
14	c1csc(-c2ccn[nH]2)c1
  17 | -2 | 1.2 | 3 | 0 | 0 | -4
15	FC(F)(F)c1cc(-c2ccco2)nc2ncnn12
  -296 | -28 | 1 | -2 | -8 | -9 | 0
16	O=C(CSc1n[nH]c(-c2cccnc2)n1)Nc1ccccc1C(F)(F)F
  10 | 18 | 0.95 | -7 | 1 | 2 | 5
17	O=C(NC1=NCCS1)c1cc(-c2ccc(-c3ccccc3)cc2)nc2ccccc12
  -346 | -17 | 0.85 | 18 | 4 | -13 | 3
18	O=C(N/N=C/c1ccc(O)c(O)c1)c1ccc(CSc2cccc3cccnc23)cc1
  -176 | -12 | 1 | -22 | 7 | 2 | -12

Entries 1 through 7 of the list above:
Under each structure: SENP8 inh | SENP6 block | hIAP activ | PfG6PD inh | NR3A LBD binder | SENP1 FRET inh | ATG4B inh
1	O=C(c1ccc(Br)cc1)c1cc(-c2ccccn2)c(N2CCOCC2)s1
  -136 | -9 | 0.96 | 21 | 1 | -19 | -10
2	Cc1ccc(-c2onc3ccc(C(=O)O)cc23)cc1
  12 | -5 | 0.79 | 3 | -1 | 0 | -3
3	Cc1ccc(S(=O)(=O)N(c2nc(NC(C)C)nc(NC(C)C)n2)n2cnnc2)cc1
  12 | -21 | 1.1 | 14 | -2 | 1 | -5
4	CC(C(=O)N1CCc2ccccc2C1)N1C(=O)c2ccccc2C1=O (stereo unspecified)
  19 | -12 | 0.94 | -7 | -1 | 1 | 2
5	O=C(N/C(=C/c1ccc(Cl)cc1)C(=O)N1CCOCC1)c1ccccc1
  -12 | 0 | 1.1 | -7 | 0 | 1 | 5
6	COc1ccccc1C(=O)Nc1ccc2ccccc2c1
  4 | 50 | 0.86 | 41 | -4 | -1 | -4
7	Cc1nnnn1-c1cccc(C(=O)O)c1
  9 | -32 | 0.81 | -13 | -6 | 0 | 2

Compounds above containing an aryl thioether with sulfur outside any ring:
Under each structure: SENP8 inh | SENP6 block | hIAP activ | PfG6PD inh | NR3A LBD binder | SENP1 FRET inh | ATG4B inh
13	CSc1ccc(S(=O)(=O)N2CCC(C(=O)Nc3ccc(NC(C)=O)cc3)CC2)cc1
  9 | -11 | 0.99 | 10 | 2 | 0 | -17
16	O=C(CSc1n[nH]c(-c2cccnc2)n1)Nc1ccccc1C(F)(F)F
  10 | 18 | 0.95 | -7 | 1 | 2 | 5
18	O=C(N/N=C/c1ccc(O)c(O)c1)c1ccc(CSc2cccc3cccnc23)cc1
  -176 | -12 | 1 | -22 | 7 | 2 | -12
